# Source: PubChem BioAssay
# RanGTP-Imp inh = inhibitors of RanGTP-importin-beta interaction, primary screen, biochemical, FRET, CFP-Ran, YFP-importin-beta, homogeneous; inhibition, % (test concentration not listed); cell-free CFP-Ran/YFP-importin-beta FRET ratio; 1.1% of 300,000 active;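 active = most replicates above 15%; inconclusive = exactly half above 15%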;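 also: 0% = DMSO wells and 100% = Ran loaded with GDP instead of GTP; wells of about 40 µL received 100 nL stock; the first replicate is given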
# Bfl-1 A1 inh = caspase 3/7 activation in MEF A1-2A-BIM cells, primary screen, A1 inhibitor project, cell-based, luminescence, HTS. Caspase-Glo 3/7 luminescence, 3 h; percent of clofoctol response, vehicle zero. caspase activation, % (concentration not given with the values). 0.066% of 330,000 active;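 active = over half of replicate activation scores above 10%, or exactly half above 10 with the replicate mean above 10; inconclusive = replicate mean below 10 yet half the replicates above 10; inactive = over half of replicates below 10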;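 also: wells of about 30 µL received 50 nL stock; many hits fall short of the cut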
# Vif TR-FRET = inhibitors of Vif binding to APOBEC3G peptide, primary screen, biochemical, TR-FRET, GST-Vif 1-94, biotin-A3G peptide, dose response retest (AID 1117319); Virion infectivity factor (Human immunodeficiency virus type 1 group M subtype B (isolate …; TR-FRET GST-Vif / biotin-A3G peptide binding; higher % means a stronger effect; test concentration not given here; strong numbers were not always called active; inhibition, %; hits with a dose series show IC50 in µM; 0.57% of 260,000 active;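 active = above the screen mean plus three standard deviations and confirmed in dose response; inconclusive = results disagree or hit not tested in dose response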;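 also: Vif residues 1-94 fused to GST binding biotinylated APOBEC3G peptide 110-148; 0% = full assay without inhibitor and 100% = GST in place of GST-Vif; retest series ran down from 100 µM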
# Ecoli rRNA inh = reduced GFP signal of wild-type E. coli, primary screen, bacterial rRNA inhibitor project, GFP/RFP fluorescence, OD600, single point | E. coli WT GFP vs humanized-ribosome RFP mutants, 24 h; stronger effect = lower value; DMSO median 0, no signal -100 | 1.6% of 350,000 active | GFP signal change (wild-type ribosome), % (no concentration beside the values) | AID 720706, 2013;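 active = significant combined selectivity score with lowered wild-type GFP, culture density cut under 30%, mutant RFP and density less affected; inactive = any of these conditions unmet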; also: one replicate is shown; some compounds called inactive have numbers as strong as hits
# AF4-AF9 inh = inhibitors of AF4 peptide binding to AF9, primary screen, biochemical, AlphaScreen, biotin-AF4 peptide, FLAG-AF9, single point | Protein AF-9 (Homo sapiens), P42568 | inhibition, % at 10 µM | 0.47% of 350,000 active | AID 651704, 2012;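 active = every replicate reaching a set inhibition limit, whatever the replicate mean, cut at about 25% in these data; inconclusive = mean inhibition reaches that limit but some replicates miss it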;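 also: 0% = plate neutral control median and 100% = total signal loss; the record names both 10 and 1 µM as test concentration; the first replicate is given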
# Target sequence (P42568 whole entry, looked up): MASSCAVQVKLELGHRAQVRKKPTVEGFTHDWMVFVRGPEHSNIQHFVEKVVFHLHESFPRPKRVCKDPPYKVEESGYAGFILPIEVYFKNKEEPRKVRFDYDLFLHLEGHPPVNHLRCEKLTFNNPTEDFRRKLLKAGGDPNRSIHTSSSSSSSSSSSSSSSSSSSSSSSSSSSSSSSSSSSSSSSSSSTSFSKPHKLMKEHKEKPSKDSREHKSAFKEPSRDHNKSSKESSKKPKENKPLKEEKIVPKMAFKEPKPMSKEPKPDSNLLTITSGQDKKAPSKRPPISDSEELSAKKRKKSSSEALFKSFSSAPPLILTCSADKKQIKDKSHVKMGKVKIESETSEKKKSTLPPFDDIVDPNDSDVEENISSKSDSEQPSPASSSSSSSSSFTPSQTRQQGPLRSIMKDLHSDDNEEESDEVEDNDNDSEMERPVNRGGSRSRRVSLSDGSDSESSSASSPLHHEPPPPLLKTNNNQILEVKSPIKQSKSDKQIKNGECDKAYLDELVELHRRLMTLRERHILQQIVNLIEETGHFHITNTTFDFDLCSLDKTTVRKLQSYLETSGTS
# Calb FLC = C. albicans growth inhibition with fluconazole, primary screen, CaCi-2 strain, Alamar Blue fluorescence | growth inhibition, % (no concentration beside the values) | 0.57% of 300,000 active | C. albicans CaCi-2 (fluconazole-resistant clinical isolate) + fluconazole, 48 h;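 active = most replicates above 75%; inconclusive = exactly half above 75%; inactive = most below 75%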;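 also: all wells also contain fluconazole at 8 µg/ml as a sub-toxic cotreatment; 0% = median of DMSO wells and 100% = median of geldanamycin control wells; wells of about 8 µL received 7.5 nL stock; the first replicate is given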
# Beta cell apopt = inhibitors of cytokine-induced beta cell apoptosis, primary screen, luminescence; protection from apoptosis, % (test concentration not listed); AID 435005, 2010; 0.8% of 300,000 active; INS-1E cytokine-induced death, ATP luminescence, 48 h; percent of positive-control rescue, neutral wells zero;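 active = all replicates at 75% or more, or half of them and the mean; inconclusive = half reach 75% but not the mean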;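 also: 0% = cytokine-treated negative control wells and 100% = positive control rescue; higher means more ATP so stronger rescue from cytokine killing; wells of about 40 µL received 100 nL stock; the first replicate is given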
# T cruzi inh = inhibitors of intracellular T. cruzi growth, primary screen, luminescence, NIH3T3 host cells | T. cruzi beta-gal in NIH3T3, 90 h | AID 1885, 2009 | inhibition, % (test concentration not listed) | 1.4% of 300,000 active;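 active = mean inhibition across valid replicates above about 55%, limit read from the data; inconclusive = mean below that limit but half or more replicates reach it; inactive = mean below it, under half of replicates reach it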;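 also: signal also drops with host cell toxicity which is not excluded here; 0% = plate median of DMSO wells and 100% = zero luminescence signal; higher percent means less beta-gal luminescence so fewer parasites; stock transfer was 50 nL into about 50 µL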
# Ecoli rRNA inh OD600 = second read-out of Ecoli rRNA inh, no call of its own (marks repeat the call); OD600 change, %; measured here: OD600 growth;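 optical density of the mix in the first replicate; 0 = DMSO median and -100 = no signal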
# Ecoli rRNA inh RFP = second read-out of Ecoli rRNA inh, no call of its own (marks repeat the call); RFP signal change, %; measured here: RFP humanized mutant strains;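 first replicate; 0 = DMSO median and -100 = no signal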
# Active calls of the source: *; ? = inconclusive; . = not tested or not shown; & = joins results of further samples; ! = not active in a repeat. An excerpt; the hit share may differ from the screen's.
SMILES,RanGTP-Imp inh,Bfl-1 A1 inh,Vif TR-FRET,Ecoli rRNA inh,Ecoli rRNA inh OD600,Ecoli rRNA inh RFP,AF4-AF9 inh,Calb FLC,Beta cell apopt,T cruzi inh
NC(=S)N/N=C/c1ccc([N+](=O)[O-])cc1,0.1,0.9,-5%,-3,7,2.0,-2.6,41,-3,-2
Cc1cc(C(=O)CSc2nc(N)cc(N)n2)c(C)n1-c1cccc(F)c1,2.6,-0.7,2%,10,18,3.0,-52,4,0,1
CCc1ccccc1Oc1ccc(S(=O)(=O)N2CCN(C)CC2)cn1,5.0,-0.5,4%,1,0,0.8,-15,1,1,42
CC(=O)Nc1ccccc1OCC(=O)NC(C)c1ccccc1 (centres undefined),6.5,0.4,.,5,5,1.0,1.1,-1,1,16
O=C(CNC1CCCCC1)Nc1cccc(C(F)(F)F)c1,0.7,0.2,10%,-5,1,-3.6,-0.5,-11,-3,-5
Cc1ccccc1NS(=O)(=O)c1nnc(NC(=O)c2ccccc2C)s1,6.1,0.5,.,-18,-71,-16,5.4,-12,-7,-11
O=C(c1ccc(NC2=NC3CS(=O)(=O)CC3S2)cc1)N1CCc2ccccc2C1 (centres undefined),0.1,0.8,0%,7,9,-2.8,-3.3,-2,5,0
CCOC(=O)C(C#N)=C1CCN(Cc2ccccc2)CC1,51*,0.4,-6%,4,5,1.4,-0.5,-1,-8,10
COc1ccc(-c2nc(NC(=O)CSc3nnc4ccccn34)ns2)cc1,-2.0,-1.8,-32%,.,.,.,.,0,-8,-16
CCC(=O)c1ccc(OCC(O)CN2CCN(S(=O)(=O)N3CCCCC3)CC2)cc1 (centres undefined),-0.6,0.0,3%&0%,.,.,.,.,-12,1,2
Cc1cc(Cl)ccc1OCC(=O)Nc1ccc(CN2CCOCC2)cc1,3.9,.,2%,-6,-6,-0.2,2.8,0,.,-1
CCOc1ccc(Nc2oc(-c3cccs3)nc2C#N)cc1,2.3,0.7,-8%,.,.,.,.,25,.,20
O=C(N/N=C/c1ccccc1O)C(=O)N1CCCCCC1,0.6,-1.1,.,-25*,-14*,-1.8*,-0.4,-22,-2,7
CCN(c1ccc(NC(=O)CCc2nc3sc4c(c3c(=O)[nH]2)CCCC4)cc1)C(C)C,-6.4,-0.2,-1%,1,2,3.4,1.4,-2,0,31
COc1ccc(S(=O)(=O)N2CCOC2CNC(=O)C(=O)NCCc2ccccc2OC)cc1C (centres undefined),7.2,-1.4,.,0,-20,-6.1,7.8,-8,0,-17
O=C(CCNS(=O)(=O)c1ccccc1F)NCc1ccc2c(c1)OCO2,2.3,-0.4,?,0,5,-5.1,.,-6,-6,-3
COc1ccc(-c2noc(CN3CCCCC3c3nccn3C)n2)cc1 (centres undefined),4.0,-0.1,.,0,-2,-0.4,12,?,-5,6
O=C(NCCN1CCOCC1)c1cnn2c(-c3ccccc3)cc(-c3ccccc3)nc12,-1.8,0.2,3%,.,.,.,.,-2,27,20
CN(C)c1ccc(Nc2nc(N)c([N+](=O)[O-])c(N3CCOCC3)n2)cc1,-2.3,0.2,?,-8,9,-4.4,30*,10,4,17
C[C@@H](CSc1ccccc1)CN1CC[C@H](NC(=O)OCc2ccccc2)CCC1=O,0.5,0.5,.,-12,-34,40,-23,11,-1,6
Cc1csc(NC(=O)CCc2c(C)nc3cc(-c4ccc(Cl)cc4)nn3c2C)n1,.,0.0,.,-2,-9,1.8,-5.0,.,9,.
O=C(CN1CCCCC1)Nc1cc(Cl)ccc1Oc1ccccc1,7.6,-0.4,-1%,-50,-75,-7.5,-2.3,-3,-4,-4
O=C(Cc1ccc(-n2c(=O)c3sccc3n(CC(=O)Nc3ccccc3)c2=O)cc1)NCc1ccco1,-0.8,-1.4,-7%,11,8,0.6,-3.6,-1,6,-4
O=C(NCCN1CCOCC1)c1ccc(=O)oc1,-2.5,0.4,-4%,.,.,.,.,-12,.,-16
COc1ccc(/C=N/NC(=O)c2ccc(=O)n(C)c2)cc1OC,3.7,0.0,14%,3,3,0.9,-0.9,18,6,-9
Cc1cc(C)cc(NC(=O)C2C3C=CC4(O3)C2C(=O)N(CCN2CCCCC2)C4C(=O)NC2CCCCC2)c1 (centres undefined),-2.4,-0.2,-3%,4,10,-1.4,2.3,-17,0,9
Cc1cc(C)cc(NC(=O)Nc2ccc3c(c2)N(C)C(=O)CS3)c1,?,-0.3,1%,-2,-4,3.1,-1.7,3,.,19
Cc1cccc(OCC(=O)Nc2ccc3c(c2)C(=O)NC3=O)c1,-0.1,-0.2,.,-3,5,-0.3,-0.4,-2,-3,-1
COc1cccc(/C=C/C(=O)c2cccc([N+](=O)[O-])c2)c1OC,-5.2,-0.7,0%,1,2,2.0,9.1,18,0,-9
O=[N+]([O-])c1c(Nc2cccc(O)c2)cc(Cl)c2nonc12,-6.3,1.5,.,-45*,-30*,-18*,4.6,63,34,60*
CN(C)P(=O)(Nc1cccc2ccccc12)Nc1cccc2ccccc12,.,0.2,-13%,12,6,4.6,-0.7,.,17,.
CCOc1cc(S(=O)(=O)NCCc2cccc(C)c2)c(OCC)cc1-n1cnnn1,-5.0,0.6,1%,.,.,.,.,-7,.,12
CC1(C)CC(=O)/C(=C(\O)Cc2ccccc2)C(=NCCCCCC(=O)O)C1,0.1,0.8,.,.,.,.,.,-1,-8,6
CC(=O)c1c[nH]c(C(=O)NCc2ccccc2Cl)c1,-0.1,2.0,-6%,-1,8,-2.4,-1.8,-5,1,-7
C=CCc1cccc2cc(C(=O)N3CCN(C(=O)c4ccco4)CC3)c(=O)oc12,-0.8,0.1,7%,2,3,2.3,.,7,6,0
Cc1ccc(C)c(NC(=O)CCN2CCOCC2)c1,1.6,0.0,14%,.,.,.,.,-2,0,-3
CCCc1cc(NC(=O)COC(=O)c2nccnc2N)n(-c2ccccc2)n1,.,0.1,1%,.,.,.,-0.2,.,-5,.
CC(=O)Nc1sc(-c2ccccc2)nc1-c1ccccc1,1.0,-0.2,15%,7,10,-1.7,0.3,16,-5,-10
Cc1ccc(S(=O)(=O)CC2CSc3nc4ccccc4n32)cc1 (centres undefined),-2.1,-0.1,1%,-11,-19,3.2,-34,88*,92*,-36
CC1CN(S(=O)(=O)c2ccc(CN3C(=O)c4cccnc4C3=O)s2)c2ccccc2O1 (centres undefined),1.7,0.2,-1%,0,2,0.0,2.2,-13,-1,-17
CCOC(=O)C1CCN(C(=O)c2ccc(C)c(S(=O)(=O)N3CCCC3)c2)CC1,-5.9,-0.5,2%,2,6,-0.1,0.6,-5,-3,6
O=C(Cc1n[nH]c(=O)[nH]c1=O)N/N=C/c1ccccc1,6.3,-1.0,-3%,18,15,0.7,.,-5,-8,-19
NS(=O)(=O)c1ccc(CNC(=O)/C=C/c2ccc(S(=O)(=O)N3CCOCC3)cc2)cc1,3.1,-0.5,10%,7,-3,-1.9,-9.0,30,-1,0
Cc1ccccc1C(=O)NC(=S)NC1CC1,2.6,-0.9,0%,2,6,-4.1,-7.6,10,-2,-5
COc1ccc2cc(C(c3nnnn3CC3CCCO3)N3CCOCC3)c(=O)[nH]c2c1 (centres undefined),4.2,0.1,2%,.,.,.,.,-11,-3,3
Cc1cccc(NC(=O)c2ccc(N3CCCCC3)c([N+](=O)[O-])c2)n1,-5.7,-6.0,-2%,.,.,.,.,-2,1,11
CSc1cccc(NC(=O)/C=C/c2ccco2)c1,-1.5,0.5,?,14,10,3.8,3.0,-6,-8,-9
C=CCc1ccccc1OCC(O)CN1CCN(CCO)CC1 (centres undefined),3.9,1.8,-7%,12,13,-0.3,8.1,-7,-4,12
O=C(COC(=O)c1cnccn1)c1ccc(OC(=O)c2ccccc2)cc1,4.7,0.7,2%,.,.,.,.,-8,7,14
CCC(Sc1nc2c(cnn2-c2ccc(Cl)cc2)c(=O)[nH]1)C(=O)OC (centres undefined),2.7,-0.1,-4%,2,3,0.9,2.0,10,14,2
O=c1ccc(-c2ccccc2)nn1Cc1ccc(Cl)cc1,-1.2,-0.4,-1%,-52,-79,-12,0.0,-1,-15,-13
CCOC(=O)Cn1nnc2c(sc3nc4c(c(-c5ccc(Cl)cc5)c32)CCC4)c1=O,0.5,-0.5,5%,.,.,.,.,1,22,31
C/C(=N\NC(=O)c1ccoc1C)c1ccccc1O,-0.4,1.0,.,-2,3,0.7,2.6,-25,80*,16
CCC(=O)Nc1ccc(NC(=O)c2cccc3c(Br)cccc23)cc1,-2.1,0.8,?,9,14,1.0,-1.2,-24,.,-2
Cc1cccc(CCN2CCN=C2Nc2ccccc2)c1,.,-0.2,.,14,11,-7.4,1.6,.,-12,.
O=[N+]([O-])c1ccc(N/N=C/c2c[nH]c3ccccc23)c(S(=O)(=O)Nc2ccc(Cl)cc2)c1,-3.2,1.0,6%,.,.,.,.,-15,12,29
Cc1ccc(C(=O)NC2CC(C)(C)NC(C)(C)C2)cc1,3.4,1.6,-9%,0,4,-2.9,-1.3,-14,-5,2
CCN(CC)Cc1c(C(=O)OC)nnn1-c1nonc1N,8.6,-0.2,-4%,.,.,.,.,-1,-5,2
O=C(NCc1ccccc1)c1cccc(S(=O)(=O)N2CCOCC2)c1,5.3,1.4,-3%&-10%,.,.,.,.,1,3,-2
O=C(Cn1ncc2c(=O)oc3ccccc3c21)N1CCCN(Cc2ccccc2F)C1,4.0,.,-3%,6,3,-1.1,5.8,-3,-6,-2
O=C(COC(=O)C1CC1)Nc1c(Cl)cccc1C(F)(F)F,0.1,1.1,-7%,3,8,-0.3,-0.4,-3,-1,-7
COc1ccc2[nH]c(C)c(-c3csc(N)n3)c2c1,-1.1,0.4,.,0,-6,3.3,9.8,1,-4,-5
CCC(c1nnnn1C(C)(C)CC)N(CCCO)Cc1cc2cc(C)cc(C)c2[nH]c1=O (centres undefined),-8.0,.,0.49µM*!,.,.,.,.,32,.,23
